Cruzain noTriton: cruzain (T. cruzi) inhibition without detergent | purified cruzain, Z-FR-AMC fluorescence, no detergent | 200,000 compounds, 2.3% hits | Potency, µM, for inactives: max response, negative = inhibition, actives largely listed as inhibitors | AID 1476 | P25779;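 also: plate controls were enzyme without inhibitor for no effect and buffer without enzyme for full effect; nearly all actives have a fitted effect of over 40% in size; top concentration of the series not given in the record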
Target sequence (P25779 123-467 limits assumed): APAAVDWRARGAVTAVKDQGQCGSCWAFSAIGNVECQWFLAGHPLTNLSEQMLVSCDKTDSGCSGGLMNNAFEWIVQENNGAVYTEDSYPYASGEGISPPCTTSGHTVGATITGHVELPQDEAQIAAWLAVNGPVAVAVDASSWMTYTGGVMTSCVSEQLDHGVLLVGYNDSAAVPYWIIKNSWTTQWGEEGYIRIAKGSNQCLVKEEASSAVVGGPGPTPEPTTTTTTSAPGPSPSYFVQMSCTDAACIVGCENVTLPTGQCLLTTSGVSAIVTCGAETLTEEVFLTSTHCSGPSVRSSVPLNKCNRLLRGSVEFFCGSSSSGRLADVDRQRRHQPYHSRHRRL
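Detergent-free condition (0.00005% Triton X-100) in acetate buffer pH 5.5 with DTT. 1.5 nM enzyme and compound were pre-mixed 15 min, then 2 uM Z-FR-AMC substrate added; reaction progress from fluorescence change between first and third reads (60 s).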
MARV entry inh: Marburg virus entry inhibition; Marburg virus pseudotyped entry inhibition, cell reporter; control for the full effect not named in the record; about a third of the inactives were read at about 46 µM; Potency, µM (doses to about 37.8 µM), for the others: at the top dose activity change, negative = inhibition, hits mostly inhibitors; 300,000 compounds, 1.8% hits; AID 540276; active = well fitted inhibition curve with a large enough effect; inconclusive = small, poorly fitted or top-dose-only effect, or effect the other way; inactive = flat fitted curve, though single readings scatter; tested in HEK293 cells; about a fifth of its hits are not listed in these tables; also: % is scaled to controls: 0 for no effect and ±100 for the full control effect; luciferase read-out
NS1 inh: inhibitors of influenza NS1 protein function | 270,000 compounds, 0.4% hits | AID 2326 | S. cerevisiae slowed by influenza A NS1, growth recovery by OD600 | Potency, µM (top dose mostly 46.1 µM), for the others: at the top dose activity, positive = more growth; active means well fitted rising curve with a large enough effect; inconclusive means small, poorly fitted or top-dose-only effect; inactive means no such curve, though single readings can be large or run the other way; also: nearly all actives have a fitted effect of over 50% in size
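OD600 was taken as the measure of yeast growth restored by compound in an NS1-expressing S. cerevisiae strain. Cells had been washed out of glucose medium and diluted 1:100 into galactose -URA medium, pH 6.0.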
RE007 growth inh: less growth of the S. pombe RE007 Vpr strain; S. pombe RE007 Vpr strain, BacTiter-Glo ATP luminescence, 24 h; control for the full effect not named in the record; Potency, µM (top dose mostly 92.2 µM), for the others: at the highest dose activity change, negative = less growth; 360,000 compounds, 0.21% hits; AID 651644; active = well fitted falling curve with a large enough effect; inconclusive = small, poorly fitted or top-dose-only effect; inactive = no such curve, though single readings can be large or run the other way;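 also: % is scaled to controls: 0 for no effect and ±100 for the full control effect; nearly all actives have a fitted effect of over 50% in size; the assay follows cell death caused by Vpr and the record does not say whether a fall means rescue or toxicity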
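Fission yeast RE007 carrying one integrated HIV-1 vpr copy, seeded at OD 0.01 in PMG+AL medium with 23 nL pinned compound. Grown 24 h at 30 degrees; viability read by BacTiter-Glo luminescence after 5 min.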
StopGo reporter: FMDV 2A StopGo reporter, luciferase signal. human cells with a luciferase reporter of 2A StopGo recoding; control for the full effect not named in the record. Potency, µM (top dose mostly 57.9 µM), for inactives: top-dose signal change, negative = less light. 410,000 compounds, 1.2% hits. AID 1159524; active = well fitted falling curve with a large enough effect; inconclusive = small, poorly fitted or top-dose-only effect; inactive = no such curve, though single readings can be large or run the other way; tested in HEK293T cells; also: % is scaled to controls: 0 for no effect and ±100 for the full control effect; nearly all actives have a fitted effect of over 45% in size; luciferase light after 4 h
LASV entry inh: blocks Lassa virus binding to or entry into cells; Lassa virus pseudotype entry inhibition, cell reporter; control for the full effect not named in the record; Potency, µM (series often up to 37.9 µM), for inactives: top-dose activity change, negative = inhibition, most hits filed as inhibitors; 300,000 compounds, 1.2% hits; active means well fitted inhibition curve with a large enough effect; inconclusive means small, poorly fitted or top-dose-only effect, or effect the other way; inactive means flat fitted curve, though single readings scatter; tested in HEK293 cells; also: % is scaled to controls: 0 for no effect and ±100 for the full control effect; nearly all actives have a fitted effect of over 50% in size; luciferase read-out
Cruzain Triton: inhibitors of Trypanosoma cruzi cruzain with detergent; P25779; purified cruzain, Z-FR-AMC fluorescence, 0.01% Triton; Potency, µM, without a hit: max response, negative = inhibition, actives largely listed as inhibitors; 200,000 compounds, 0.43% hits; AID 1478;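 also: plate controls were neutral wells for no effect and buffer without enzyme for full effect; nearly all actives have a fitted effect of over 40% in size; top concentration of the series not given in the record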
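Enzyme 1.5 nM, Z-FR-AMC 2 uM, NaOAc 100 mM pH 5.5, DTT 5 mM, Triton X-100 0.01%; 15 min RT compound preincubation; kinetic ex360/em450, 60 s delta.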
SARS PLpro yeast: blocks SARS-CoV papain-like protease in a yeast assay; S. cerevisiae expressing SARS-CoV PLpro, growth rescue; control for the full effect not named in the record; Potency, µM (series often up to 32.9 µM), for the others: at the highest dose activity, positive = growth rescue; 330,000 compounds, 0.19% hits; AID 485353; active means well fitted rising curve with a large enough effect; inconclusive means small, poorly fitted or top-dose-only effect; inactive means no such curve, though single readings can be large or run the other way; also: 0% is about no effect; nearly all actives have a fitted effect of over 55% in size; growth read by luminescence after 48 h
* = called active by the depositor; ? = inconclusive; · = not tested or not shown; [ ] = remark or other dose. Unless noted, calls follow the shape of the dose curve; as a rule, active = well fitted curve in the direction sought with a large enough effect; inconclusive = small, poorly fitted or top-dose-only effect, or another doubt; inactive = no such curve, though single readings can be large; an effect the other way counts as inactive or inconclusive. Potency is read from the fitted curve at half-maximal effect.

1) O=C(CN1C(=O)CC(c2ccco2)Sc2ccccc21)Nc1ccccc1F (stereo not given)
2) O=C(NCc1n[nH]c(=S)n1-c1ccc(F)cc1)c1ccco1
3) Cc1ccc(C2=N/C(=C\c3ccc(OS(=O)(=O)c4ccc(C)cc4)cc3)C(=O)O2)cc1
4) CC(=O)NC(=O)c1cnn(-c2ccccc2)c1N
5) Cn1nc(OCc2ccccc2)ccc1=O
Compound	1	2	3	4	5
Cruzain noTriton	?	7%	20µM*	·	-1%
MARV entry inh	·	18%	3%	?	-17%
NS1 inh	-117%	4%	10%	-2%	0%
RE007 growth inh	6%	-13%	17%	7%	?
StopGo reporter	4%	7%	-6%	-4%	-6%
LASV entry inh	·	11%	?	1%	3%
Cruzain Triton	-15%	5.0%	-12%	·	2.6%
SARS PLpro yeast	?	0%	13%	0%	4%

6) O=C(O)c1cccc2c1-c1ccc([N+](=O)[O-])cc1C2=O
7) COc1ccc(Nc2nnc(SCC(=O)c3cc4ccccc4o3)s2)cc1
8) Cc1cccc(OCCCC(=O)Nc2ccc(S(N)(=O)=O)cc2)c1
9) Cn1c(=O)c2c(nc(N/N=C/c3ccco3)n2C)n(C)c1=O
10) COc1ccc(N2CC(NC(=O)C(c3ccccc3)c3ccccc3)CC2=O)cc1 (stereo not given)
Compound	6	7	8	9	10
Cruzain noTriton	·	·	·	·	24%
MARV entry inh	22%	·	15%[46.1 µM]	26%[46.1 µM]	·
NS1 inh	·	?	1%	0%	·
RE007 growth inh	6%	19%	-6%	35%	·
StopGo reporter	0%	43%[activator]	-7%	15%	-18%
LASV entry inh	5%[46.1 µM]	·	1%	-6%	0%[46.1 µM]
Cruzain Triton	·	·	·	·	-2.7%
SARS PLpro yeast	·	6%	-1%	1%	·

11) Cc1ccc(N2C(=O)C3CCCN3C2=S)cc1 (stereo not given)
12) COc1cccc(C(=O)N(Cc2nc(-c3ccc(C)cc3)no2)C(C)C)c1
13) Cc1cc2oc(C(=O)Nc3ccc(S(=O)(=O)N(C)Cc4ccccc4)cc3)cc(=O)c2cc1C
14) Cc1ccn2cc(-c3ccc(NC(=O)c4ccco4)cc3)nc2c1
15) Cc1ccc(C)c(NC(=O)CN2CCCN(Cc3cccc(Cl)c3)S2(=O)=O)c1
Compound	11	12	13	14	15
Cruzain noTriton	·	9%	0%	-10%	8%
MARV entry inh	?	-4%	0%[46.1 µM]	?	·
NS1 inh	1%	-34%	·	7%	·
RE007 growth inh	0%	-8%	·	-12%	·
StopGo reporter	7%	-24%	5%	-2%	-9%
LASV entry inh	-12%[46.1 µM]	0%	-1%[46.1 µM]	?	-6%[46.1 µM]
Cruzain Triton	·	-1.4%	0.6%	-11%	-8.0%
SARS PLpro yeast	1%	-5%	·	1%	·

16) Cc1cccc(Nc2nnc(-c3ccc(N4CCOCC4)c([N+](=O)[O-])c3)c3ccccc23)c1
17) O=C(N/N=C/c1ccccn1)c1cccc([N+](=O)[O-])c1
18) O=C(COc1ccc2c3c(c(=O)oc2c1)CCC3)Nc1ccccn1
19) O=C(CCCN1C(=O)/C(=C/c2ccccc2)SC1=S)NCCCn1ccnc1
20) COc1ccc(N2CC(C(=O)NNC(=O)c3ccc(Br)cc3)CC2=O)c(OC)c1 (stereo not given)
Compound	16	17	18	19	20
Cruzain noTriton	6%	·	·	·	·
MARV entry inh	2.2µM*	?	·	·	1%
NS1 inh	1%	-3%	1%	8%	·
RE007 growth inh	1%	3%	-2%	-5%	0%
StopGo reporter	-13%	-2%	46%[activator]	-12%	-13%
LASV entry inh	10µM*	-20%	·	·	-15%
Cruzain Triton	-1.6%	·	·	·	·
SARS PLpro yeast	14%	0%	1%	-2%	·

21) CCN1CCN(C(=O)c2ccc(Cl)c(S(=O)(=O)N3CCCCCC3)c2)CC1
22) COc1ccc(N(CC(=O)NC(C)C)C(=O)CCC(=O)Nc2ccccn2)cc1
23) Cc1cc(C)c2nc(NC(=O)c3ccc4c(=O)n5c(nc4c3)CCCCC5)sc2c1
24) COc1ccccc1C1=NNC(=Nc2cccc(S(=O)(=O)N(C)C)c2)SC1
25) CCC(=O)N1CCC2(CC1)Oc1ccc(Cl)cc1C(=O)C21CC(c2ccccc2)=NO1 (stereo not given)
Compound	21	22	23	24	25
Cruzain noTriton	·	·	25%	·	·
MARV entry inh	-2%[46.1 µM]	?	·	7.1µM*	·
NS1 inh	2%	4%	3%	?	?
RE007 growth inh	36%	-2%	-7%	-8%	5%
StopGo reporter	-20%	2%	-26%	?	-28%
LASV entry inh	-4%	13%	·	?	·
Cruzain Triton	·	·	-4.2%	·	·
SARS PLpro yeast	-1%	-1%	8%	-3%	0%

26) O=c1c2[nH]c3ccccc3c2nc2n1CCS2
27) NC(=O)NCc1ccc(F)cc1
28) CC1(OC(=O)c2ccco2)C(=O)C=C2C=C(C3CC3)OC=C2C1=O (stereo not given)
29) O=C(Nc1ccc(OCc2ccccc2Cl)cc1)c1cccnc1
30) O=C(CSc1ccc2nc(-c3ccccc3)cn2n1)NCC1CCCO1 (stereo not given)
Compound	26	27	28	29	30
Cruzain noTriton	·	·	-16%	·	·
MARV entry inh	?	13%[46.1 µM]	·	·	·
NS1 inh	·	3%	·	-68%	-2%
RE007 growth inh	10%	5%	-6%	-27%	-1%
StopGo reporter	0%	-1%	-21%	?	8%
LASV entry inh	2%	17%	·	·	·
Cruzain Triton	·	·	0.7%	·	·
SARS PLpro yeast	0%	-1%	·	-8%	0%

31) O=C(COc1ccccc1)Nc1c(C(=O)N2CCN(c3ccc(F)cc3)CC2)oc2ccccc12
32) Cc1cccn2c(CN[C@H]3CCCCNC3=O)c(C(=O)N3CCOCC3)nc12
33) c1nc(SSc2ncnc3nc[nH]c23)c2[nH]cnc2n1
34) COc1cccc(NC(=O)COC(=O)C2CCN(S(=O)(=O)c3cccs3)CC2)c1
35) CC(=O)OCC(=O)C1=CCC2C3CCC4=CC(=O)C=CC4(C)C3(F)C(OC(C)=O)CC12C (stereo not given)
Compound	31	32	33	34	35
Cruzain noTriton	-3%	·	·	·	·
MARV entry inh	·	13%[46.1 µM]	?	8%	?
NS1 inh	·	-4%	·	·	0%
RE007 growth inh	·	-14%	-1%	8%	17%
StopGo reporter	92%[activator]	11%	-25%	-3%	?
LASV entry inh	0%[46.1 µM]	?	?	14%[46.1 µM]	1%
Cruzain Triton	-0.5%	·	·	·	·
SARS PLpro yeast	·	-2%	·	1%	2%

In the list so far, seven contain a furan ring, fused or not.
1) O=C(CN1C(=O)CC(c2ccco2)Sc2ccccc21)Nc1ccccc1F (stereo not given)
2) O=C(NCc1n[nH]c(=S)n1-c1ccc(F)cc1)c1ccco1
7) COc1ccc(Nc2nnc(SCC(=O)c3cc4ccccc4o3)s2)cc1
9) Cn1c(=O)c2c(nc(N/N=C/c3ccco3)n2C)n(C)c1=O
14) Cc1ccn2cc(-c3ccc(NC(=O)c4ccco4)cc3)nc2c1
28) CC1(OC(=O)c2ccco2)C(=O)C=C2C=C(C3CC3)OC=C2C1=O (stereo not given)
31) O=C(COc1ccccc1)Nc1c(C(=O)N2CCN(c3ccc(F)cc3)CC2)oc2ccccc12
Compound	1	2	7	9	14	28	31
Cruzain noTriton	?	7%	·	·	-10%	-16%	-3%
MARV entry inh	·	18%	·	26%[46.1 µM]	?	·	·
NS1 inh	-117%	4%	?	0%	7%	·	·
RE007 growth inh	6%	-13%	19%	35%	-12%	-6%	·
StopGo reporter	4%	7%	43%[activator]	15%	-2%	-21%	92%[activator]
LASV entry inh	·	11%	·	-6%	?	·	0%[46.1 µM]
Cruzain Triton	-15%	5.0%	·	·	-11%	0.7%	-0.5%
SARS PLpro yeast	?	0%	6%	1%	1%	·	·

An unsorted share of the library; any-hit rate near 4.8%.
